Bioassay records (PubChem BioAssay)
Sa RN4220 lethal = S. aureus RN4220 growth inhibition. inhibition, % (concentration not given with the values). AID 1259311. hit rate 0.33% among 330,000. OD600, 16 h;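 active = z-score of -3 or lower and OD600 up to 0.18 on both plates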;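 note: plate controls were untreated cells for no effect and reference antibiotic for full effect; stock transfer was 100 nL into about 80 µL; one replicate is shown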
PrP UTR inh = inhibition of PrP 5' UTR reporter expression; hit rate 0.35% among 340,000; cell-based PrP 5' UTR mRNA reporter, plate reader; inhibition, % (test concentration not listed);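 active = every replicate at 50% or more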;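 note: 0 = median of the neutral control wells; tested in H4 reporter cells; numbers are from one replicate; inactives centre near -14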
BJeLR viability = BJeLR cell viability loss; hit rate 0.17% among 300,000; BJeLR (HRASV12) viability, CellTiter-Glo ATP luminescence, 48 h; reference of the scale not given here; inhibition, % (concentration not given with the values);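 active = replicate mean above 50%; inconclusive = above 50% but judged a plate artefact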;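 note: 50 nL library stock added to about 25 µL; numbers are from one replicate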
Bead autofluor = counter-screen for toxin protease inhibitors: compound fluorescence; hit rate 3.1% among 360,000; fluorescence intensity (concentration not given with the values); compound autofluorescence counterscreen, microsphere flow cytometry; active compounds read high;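 active = at least 3 SD above the mean of all compounds, about 16000 in these data; inconclusive = too few beads counted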;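 note: 100 nL of 1 mM stock went into each well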
Mtb hypoxia inh = reduces hypoxia-regulated biosensor signal in M. tuberculosis; M. tuberculosis hypoxia-regulated fluorescent reporter, fluorescence; fluorescence inhibition, % (test concentration not listed); hit rate 0.1% among 300,000;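 active = 35 to 45% if threefold the growth effect, above 45% if 1.5-fold the growth effect; inactive = the rest, general growth blockers included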;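 note: wells of about 50 µL received 100 nL stock; 0% = vehicle wells and 100% = reference inhibitor wells; whole bacteria with a GFP reporter of the hypoxia response; strong numbers were not always called active; many hits fall short of the cut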
ugtP null kill = growth inhibition of S. aureus ugtP deletion strain; S. aureus RN4220 ugtP deletion, OD600 growth, 16 h; some inactives read as strong as hits; growth inhibition, % (concentration not given with the values); hit rate 0.54% among 330,000;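 active = z-score under -3 and OD600 up to 0.15 on both plates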;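 note: plate controls were untreated wells for no effect and antibiotic for full effect; wells of about 80 µL received 100 nL stock; the first replicate is given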
Mtb hypoxia inh growth = second read-out of Mtb hypoxia inh, no call of its own (marks repeat the call); growth inhibition, %; measured here: M. tuberculosis growth (absorbance);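 0% = vehicle and 100% = reference antibiotic; read after six days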
Starred values were filed as active, the others as inactive; ? = inconclusive; / = no result given.

Preview:
1. CN(C)S(=O)(=O)c1ccc(C(=O)N2CCN(C(=O)C3CCCO3)CC2)cc1 (centres undefined)
2. CCOC(=O)CSc1nc2cc3c(cc2cc1CC)OCCO3
3. CCN(CC)C(=O)COc1ccc(-c2nnc(N3CCCCC3)c3ccccc23)cc1
Compound	1	2	3
Sa RN4220 lethal	0.5	-1.0	0.9
PrP UTR inh	-15	-6	-1
BJeLR viability	/	0	4
Bead autofluor	3689	4239	3420
Mtb hypoxia inh	-1	/	16
Mtb hypoxia inh growth	12	/	12
ugtP null kill	3	-4	-8

Results, repeating the preview:
1. CN(C)S(=O)(=O)c1ccc(C(=O)N2CCN(C(=O)C3CCCO3)CC2)cc1 (centres undefined)
2. CCOC(=O)CSc1nc2cc3c(cc2cc1CC)OCCO3
3. CCN(CC)C(=O)COc1ccc(-c2nnc(N3CCCCC3)c3ccccc23)cc1
4. C=CCN(CC=C)S(=O)(=O)c1ccc(NC(=S)NC(=O)c2ccco2)cc1
5. CSCCC(NC(=O)c1ccc(Cl)cc1)C(=O)NC(C)(C)C (centres undefined)
6. COc1ccc(C(=O)N2CCC(C(=O)O)CC2)cc1
7. CN(C(=O)c1cc2ccccc2cc1O)C1CCCCC1
8. CC(C)C(OC(=O)c1cccs1)C(=O)NCc1ccco1 (centres undefined)
9. CCCSc1nc2c(c(=O)n1CC)SC(C)C2 (centres undefined)
10. O=C(Cc1cn(Cc2cccc(Cl)c2)c2ccccc12)N1CCCCCC1
Compound	1	2	3	4	5	6	7	8	9	10
Sa RN4220 lethal	0.5	-1.0	0.9	-0.5	-4.2	1.7	2.7	4.8	18	-4.1
PrP UTR inh	-15	-6	-1	-17	-35	-17	-18	-8	-9	-21
BJeLR viability	/	0	4	3	-7	-8	-7	4	-5	-13
Bead autofluor	3689	4239	3420	3725	5404	10331	6089	3110	4331	6804
Mtb hypoxia inh	-1	/	16	/	-29	3	19	2	1	-1
Mtb hypoxia inh growth	12	/	12	/	-1	4	-7	-1	11	5
ugtP null kill	3	-4	-8	10	-6	2	3	15	2	-12

Part of the list above, with values under each structure:
Below each compound: Sa RN4220 lethal | PrP UTR inh | BJeLR viability | Bead autofluor | Mtb hypoxia inh | Mtb hypoxia inh growth | ugtP null kill
5: CSCCC(NC(=O)c1ccc(Cl)cc1)C(=O)NC(C)(C)C (centres undefined)
  -4.2 | -35 | -7 | 5404 | -29 | -1 | -6
4: C=CCN(CC=C)S(=O)(=O)c1ccc(NC(=S)NC(=O)c2ccco2)cc1
  -0.5 | -17 | 3 | 3725 | / | / | 10
6: COc1ccc(C(=O)N2CCC(C(=O)O)CC2)cc1
  1.7 | -17 | -8 | 10331 | 3 | 4 | 2
1: CN(C)S(=O)(=O)c1ccc(C(=O)N2CCN(C(=O)C3CCCO3)CC2)cc1 (centres undefined)
  0.5 | -15 | / | 3689 | -1 | 12 | 3

(list continues)
11. CCOC(=O)CNC(=O)CCCCCC(=O)NCC(=O)OCC
12. COc1ccc(NC(=O)COC(=O)c2ccc(C)c(S(=O)(=O)N3CCCCC3)c2)cc1
13. COc1ccc(C=Nn2c(-c3cc(C)[nH]n3)n[nH]c2=S)cc1OC
14. COc1ccc(-n2c(SCc3cccnc3)nc3c(c2=O)SCC3)cc1OC
15. O=C(O/N=C\c1ccc(N2CCCCC2)c([N+](=O)[O-])c1)c1ccc(Cl)cc1Cl
16. CCCCn1nc(C(=O)NNC(=O)c2ccncc2)c2ccccc2c1=O
17. CC(=O)Nc1nc2nc(-c3ccccc3)cc(-c3ccccc3)n2n1
18. COc1c2ccoc2c(OC[C@@H](O)C(C)(C)O)c2oc(=O)ccc12
19. Cn1cncc1C#Cc1ccc2c(=O)c3ccccc3oc2c1
20. COc1ccc(C(=O)N2CCN=C2SC)cc1
Compound	11	12	13	14	15	16	17	18	19	20
Sa RN4220 lethal	1.7	3.4	3.6	0.8	/	-1.7	2.8	/	5.2	0.3
PrP UTR inh	0	-11	/	-14	-27	-13	-71	-18	-72	-8
BJeLR viability	4	/	/	-15	1	4	-8	2	/	-4
Bead autofluor	2425	3746	/	3808	2533	5621	3416	3693	2949	4072
Mtb hypoxia inh	/	2	6	1	/	-7	24	/	4	13
Mtb hypoxia inh growth	/	7	12	-4	/	5	19	/	1	5
ugtP null kill	4	0	0	-3	/	-3	3	/	3	5

21. O=C(CCNS(=O)(=O)c1c(Cl)cccc1Cl)N1CCCC1
22. c1cc(CNCC2CCCO2)ccn1 (centres undefined)
23. COc1cc(C(=O)NNC(=O)c2ccoc2C)cc(OC)c1OC
24. Cc1cccc(NC2SC(=O)N(c3ccccc3)C2=O)c1 (centres undefined)
25. CCC1CCCCN1CCCNC(=O)CC1Oc2ccc(C)cc2NC1=O (centres undefined)
26. CCCN1CCN(CCCNC(=O)c2cc3c(=O)[nH]c4ccccc4c3s2)CC1
27. Cc1cccc(NC(=O)C2CCN(S(=O)(=O)c3ccc4ccccc4c3)CC2)n1
28. COC(=O)Cn1c(CCC(=O)O)ccc1-c1ccccc1
29. CSc1nc2ccccc2n1Cc1cccc(F)c1
30. O=C1c2cccc3c(N4CCCCC4)ccc(c23)C(=O)N1c1ccccc1O
Compound	21	22	23	24	25	26	27	28	29	30
Sa RN4220 lethal	-4.1	12	4.0	6.8	-0.2	2.3	2.6	6.3	-2.2	5.7
PrP UTR inh	-23	-10	-10	-32	-28	-28	-13	-22	-23	-17
BJeLR viability	/	-1	-5	-2	-4	7	15	5	5	3
Bead autofluor	2823	2112	2094	9888	6096	4181	?	6653	3543	7563
Mtb hypoxia inh	-13	16	12	11	/	10	-9	/	/	3
Mtb hypoxia inh growth	-14	0	3	-1	/	5	-6	/	/	10
ugtP null kill	1	1	-1	8	14	-1	6	-9	13	6

31. Cc1cccc(OCC(=O)NCC(=O)N/N=C/c2cccs2)c1
32. N#Cc1c(N)nc(SCc2ccccn2)c(C#N)c1-c1cccs1
33. CCOC(=O)c1cccc(NC(=O)CSc2nnc(-c3ccoc3C)n2CC)c1
34. CC(CC(=O)C(F)(F)F)=NNC(=O)/C(C#N)=C/N(C)C
35. OCCC1CN(Cc2cc3c(cc2Cl)OCO3)CCN1Cc1ccccc1 (centres undefined)
36. CCNc1nc(N2CCCCC2)nc(-n2nnc(C(=O)OCC)c2C)n1
37. COc1ccc(-c2nn(-c3ccccc3)cc2C=NNC(=O)c2cccc(S(=O)(=O)Nc3ccccc3OC)c2)cc1
38. N=c1c2c(-c3ccccc3)c(-c3ccccc3)n(Cc3ccccc3)c2ncn1CCO
39. Cc1ccc(C(=O)/C=C/C(=O)O)cc1
40. Cc1nn(CC(=O)N2CCCC2)c(=O)c2nn(-c3ccccc3)c(C)c12
Compound	31	32	33	34	35	36	37	38	39	40
Sa RN4220 lethal	/	5.9	3.7	0.8	-2.2	9.5	2.5	-3.0	0.0	0.3
PrP UTR inh	-3	6	-8	/	-92	-13	/	-14	7	-17
BJeLR viability	-13	-3	-2	/	-5	3	/	-11	2	-2
Bead autofluor	2106	8633	3401	/	4114	23587*	/	22944*	2128	6017
Mtb hypoxia inh	/	-1	/	2	4	0	13	1	-8	3
Mtb hypoxia inh growth	/	-2	/	6	3	0	0	15	4	7
ugtP null kill	/	9	12	1	0	1	-7	91*	13	1

41. COC(=O)CN1C(=O)Nc2ccc(C)cc2C1c1ccccc1 (centres undefined)
42. O=C(CN1c2ccccc2Sc2ccccc21)NNC(=O)Nc1ccc(Cl)c(Cl)c1
43. CCOC(=O)c1sc2c(c1C)c(=O)n(CCO)c(=O)n2Cc1ccccc1
44. CCOc1ccc(C(=O)Nc2cccc3nsnc23)cc1[N+](=O)[O-]
45. O=C(CCCC(=O)OCC(Cl)=C(Cl)Cl)Nc1ccccc1F
46. COCCNC(=O)C1=NOC(Cn2cc(C#N)c(=O)n(C)c2=O)C1 (centres undefined)
47. Cc1nc(-c2ccc([N+](=O)[O-])cc2)nc2[nH]ccc(=O)c12
48. NC(=O)c1ccc(NC(=O)COC(=O)CCN2C(=O)c3ccccc3C2=O)cc1
49. CN(C)S(=O)(=O)c1ccc(C(=O)Nc2cccc(S(=O)(=O)NC3=NCCC3)c2)cc1
50. O=C(Nc1ncccn1)c1ccc([N+](=O)[O-])cc1[N+](=O)[O-]
Compound	41	42	43	44	45	46	47	48	49	50
Sa RN4220 lethal	2.2	100*	3.4	7.1	3.5	5.1	3.4	0.2	3.3	-4.4
PrP UTR inh	-13	-25	12	-25	-5	-18	-34	-13	-12	-91
BJeLR viability	1	-7	-12	2	-3	-4	7	/	0	2
Bead autofluor	4167	4762	3540	2731	7928	3534	3719	8112	5371	3399
Mtb hypoxia inh	15	12	-1	-11	7	0	1	3	-7	-6
Mtb hypoxia inh growth	9	7	1	-4	9	-5	-2	4	4	14
ugtP null kill	3	101*	2	-4	9	13	7	4	5	29

51. Cc1c(C(=O)Nc2ccc(-c3nnc4n3CCCCC4)cc2)oc2ccc(Br)cc12
52. COc1ccc(-c2c(C#Cc3ccsc3)c3cc(-c4ccc5[nH]ccc5c4)ccc3n2C)cc1
53. COc1ccc(N2CCN(C(=O)COc3ccc(S(=O)(=O)N4CCOCC4)cc3C)CC2)cc1
54. O=C(COC(=O)c1cc(Br)ccc1O)Nc1cc(S(=O)(=O)N2CCCC2)ccc1Cl
55. COc1ccc(OCC(=O)NN=C(C)CC(=O)Nc2ccc(OC)cc2[N+](=O)[O-])cc1
56. CCN(CC)S(=O)(=O)c1ccc2oc(Nc3ccccc3)nc2c1
57. Cc1ccc(C(=O)NCCCNc2ccc(C(F)(F)F)cc2[N+](=O)[O-])cc1
58. COc1ccc(/C=N/N=C2/NC(=O)C(CC(=O)O)S2)cc1OS(=O)(=O)c1ccccc1 (centres undefined)
59. CCOC(=O)N1CCN(C(=O)CCS(=O)(=O)c2ccc(Br)s2)CC1
60. CC(C)(C)c1ccc(O)c(CN2CCN(c3ccccc3)CC2)c1
Compound	51	52	53	54	55	56	57	58	59	60
Sa RN4220 lethal	16	6.5	3.9	11	1.3	1.2	6.4	/	5.1	-3.9
PrP UTR inh	-14	-16	-18	0	/	-105	-24	-9	-16	-16
BJeLR viability	6	/	1	1	/	-3	-1	-10	1	9
Bead autofluor	4701	2801	3838	3310	/	5385	2212	4464	14660	3188
Mtb hypoxia inh	-4	19	10	6	-7	1	7	/	4	5
Mtb hypoxia inh growth	8	16	8	-1	14	-1	-6	/	2	1
ugtP null kill	15	0	5	18	-11	-32	2	/	10	14

61. CCN(C(=O)COC(=O)c1cccc(C)c1[N+](=O)[O-])c1c(N)n(Cc2ccccc2)c(=O)[nH]c1=O
62. Cc1ccc2c(=O)cc(C(=O)NCCc3ccc(S(N)(=O)=O)cc3)oc2c1C
63. CCCc1nc(SCC(=O)O)c2sc(=S)n(-c3ccccc3)c2n1
64. O=C(CNC(=O)c1ccccc1)NN=Cc1ccccc1Cl
65. CC1Cc2ccccc2N1S(=O)(=O)c1c(N)n(C)c(=O)n(C)c1=O (centres undefined)
66. Cc1cc(NC(=O)c2ccc(Cn3cc([N+](=O)[O-])cn3)o2)no1
67. COc1ccc(N2C(=O)C(F)(F)C2c2ccccc2F)cc1 (centres undefined)
68. O=S(=O)(N1CCOCC1)N1CCOCC1
Compound	61	62	63	64	65	66	67	68
Sa RN4220 lethal	0.8	4.9	3.1	5.3	4.6	4.0	7.1	2.3
PrP UTR inh	2	-21	-70	/	-13	-18	-4	-14
BJeLR viability	/	0	0	/	-12	/	4	-7
Bead autofluor	5266	3649	3702	/	2452	5793	4462	3550
Mtb hypoxia inh	3	-1	-5	12	4	10	14	-4
Mtb hypoxia inh growth	-3	7	8	0	6	13	9	0
ugtP null kill	3	1	1	-5	1	3	3	3

Down the list, as entered above.
Nos. 61–68 in Bead autofluor read 5266, 3649, 3702, /, 2452, 5793, 4462, 3550
